MT1-MMP act inh = blocks activation of human MT1-MMP; GFP/RFP ratio change, % at 20 µM; P50281; HT1080 RFP-PRO-GFP cells, GFP/RFP ratio fluorescence, overnight; percent of plate control window, DMSO zero; AID 651647; hit rate 0.061% among 360,000;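 active = GFP/RFP ratio change of at least 30% with cell ATP level not reduced by more than half and red fluorescence within 50% of control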; note: strong numbers were not always called active
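Test system: HT1080 RFP-PRO-GFP cells; Benchmarks: DMSO and RFP-L50D-GFP cell wells; Timing: cells overnight before dosing, compound overnight, 37 °C, 5% CO2; Compound: one 20 µM compound dose with 1% DMSO; Read-out: GFP/RFP fluorescence ratio.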
eIF4H FP inh = inhibitors of RNA binding by human eIF4H; eIF4H fluorescence polarization binding assay; inhibition, % at 35 µM; hit rate 0.94% among 290,000; AID 2012; Q15056;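 active = 50% or more with normal probe brightness, or confirmed in later tests; about a fifth of its hits are not listed in these tables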;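 note: calls also rest on retests at 20 µM and on dose response follow-up; 0% = protein and probe with vehicle and 100% = probe without protein; strong numbers were not always called active; many hits fall short of the cut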
CSC inhib = blocks cancer stem cells; cancer stem cell-like cells viability, luminescence; inhibition, % at 7.5 µM; hit rate 1.1% among 300,000;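 active = mean at 75% or more and at least half the replicates too; tested in HMLE shEcad cells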;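 note: 0% = median of negative and 100% = median of positive control wells; the first replicate is given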
PABP polyA inh = PABP-poly(A) binding inhibition | hit rate 1% among 290,000 | P11940 | PABP-poly(A) RNA binding, fluorescence polarization | AID 2014 | inhibition, % at 35 µM;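 active = 50% or more with normal probe brightness, or confirmed in later tests; about a fifth of its hits are not listed in these tables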;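 note: calls also rest on retests at 20 µM and on dose response follow-up; controls were probe without protein and protein plus probe with vehicle; some compounds called inactive have numbers as strong as hits; many hits fall short of the cut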
Target sequence (P11940 whole entry, looked up): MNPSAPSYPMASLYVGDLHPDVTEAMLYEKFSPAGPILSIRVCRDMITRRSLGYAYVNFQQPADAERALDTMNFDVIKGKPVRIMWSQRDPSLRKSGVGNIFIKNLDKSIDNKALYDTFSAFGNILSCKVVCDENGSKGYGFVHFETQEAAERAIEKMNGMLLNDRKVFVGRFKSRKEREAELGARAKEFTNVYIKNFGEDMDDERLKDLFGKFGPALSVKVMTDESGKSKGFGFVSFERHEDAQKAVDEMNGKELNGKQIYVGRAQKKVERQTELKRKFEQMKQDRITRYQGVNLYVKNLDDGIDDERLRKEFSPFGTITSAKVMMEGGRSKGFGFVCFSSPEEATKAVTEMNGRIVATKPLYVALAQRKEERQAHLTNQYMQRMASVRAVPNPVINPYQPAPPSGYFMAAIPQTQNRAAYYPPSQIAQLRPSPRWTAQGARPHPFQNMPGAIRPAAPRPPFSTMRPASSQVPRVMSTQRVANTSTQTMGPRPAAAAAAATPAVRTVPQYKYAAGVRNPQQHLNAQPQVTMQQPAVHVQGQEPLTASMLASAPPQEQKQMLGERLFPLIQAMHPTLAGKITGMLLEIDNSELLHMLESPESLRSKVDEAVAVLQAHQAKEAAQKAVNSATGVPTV
Yeast UUG start = yeast start codon fidelity modulation; S. cerevisiae UUG-firefly luciferase reporter, luminescence/redox ratio; activity score, % at 18.7 µM; hit rate 0.13% among 350,000; AID 602363;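 active = replicate mean at a twofold rise or more, about +100% in these data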;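 note: firefly luciferase made from a UUG start codon reports start codon fidelity; reporter light over untreated wells divided by growth signal over untreated wells; some hits fall short of that in this replicate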
Rce1 inhib = inhibitors of yeast Ras-converting enzyme. hit rate 0.27% among 290,000. Q03530. yeast membranes, quenched prenylated peptide cleavage fluorescence. calls only;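 active = fall in fluorescence gain of 50% or more versus controls, with final raw signal at or below 3038400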;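 note: plate controls were neutral control wells for no effect and wells lacking membranes for full effect; tested at 10 µM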
Target sequence (Q03530 whole entry, looked up): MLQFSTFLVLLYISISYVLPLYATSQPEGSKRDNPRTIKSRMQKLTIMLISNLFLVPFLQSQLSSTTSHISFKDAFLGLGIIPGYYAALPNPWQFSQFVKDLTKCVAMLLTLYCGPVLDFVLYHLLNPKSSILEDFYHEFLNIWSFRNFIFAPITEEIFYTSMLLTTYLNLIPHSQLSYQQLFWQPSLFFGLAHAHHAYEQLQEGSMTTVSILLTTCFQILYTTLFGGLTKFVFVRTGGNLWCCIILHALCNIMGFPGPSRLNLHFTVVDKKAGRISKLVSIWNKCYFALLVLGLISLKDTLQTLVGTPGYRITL
HIV Env fusion = inhibitors of HIV Env-mediated cell fusion; HeLa-JRFL Env/CEM21 cell fusion, luciferase; inhibition, % at 12.3 µM; hit rate 1.1% among 360,000; AID 651610;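 active = mean replicate inhibition score of at least 50 and every replicate individually at or above 50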;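 note: 0% = plate neutral controls and 100% = maraviroc near 300 nM; one replicate is shown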
MT1-MMP act inh RFP = recorded beside MT1-MMP act inh, whose call it bears; RFP signal change, %; measured here: RFP expression control read;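 0 = vehicle wells; hits needed this value within 50% of zero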
* hit, by the source's call; & = joins results of further samples.

How did COc1cc(C(=O)Nc2ccc(-c3nc4cc(C)ccc4o3)c(O)c2)cc(OC)c1OC do in these assays?
MT1-MMP act inh: -1.5; eIF4H FP inh: -12.4; CSC inhib: 72.1; PABP polyA inh: -2.2; Yeast UUG start: -16.7; Rce1 inhib: inactive; MT1-MMP act inh RFP: -13.3

Results for COc1ccnc(Oc2ccc(C)cc2)c1C#N ?
MT1-MMP act inh: 0.1; eIF4H FP inh: 0.1; CSC inhib: 0.4; PABP polyA inh: 9.6; Yeast UUG start: 11.5; Rce1 inhib: inactive; HIV Env fusion: -35.6; MT1-MMP act inh RFP: 5.3

Results for O=C(NCCCc1ccccc1)C1CCC(=O)N(CCc2ccc(Cl)cc2)C1 (configuration not stated) ?
MT1-MMP act inh: 0.6; eIF4H FP inh: -2.2; CSC inhib: -26.7; PABP polyA inh: 2.3; Yeast UUG start: 2.2; Rce1 inhib: inactive; HIV Env fusion: -0.1; MT1-MMP act inh RFP: -4.8

How did CCOc1ccc(S(=O)(=O)N(CC(N)=O)c2ccc(C)cc2)cc1 do in these assays?
MT1-MMP act inh: 8.5; eIF4H FP inh: 6.7; CSC inhib: 0.3; PABP polyA inh: -3.0; Yeast UUG start: -10.4; Rce1 inhib: inactive; HIV Env fusion: -13.3; MT1-MMP act inh RFP: -2.1

How did CCOC(=O)CNC(=O)Cn1cnc2c(nnn2-c2cccc(Cl)c2)c1=O do in these assays?
MT1-MMP act inh: 8.5; eIF4H FP inh: -8.5; CSC inhib: -9.9; PABP polyA inh: 7.8; Yeast UUG start: -9.7; Rce1 inhib: inactive; HIV Env fusion: -16.9; MT1-MMP act inh RFP: 4.1

What do the screens show for `Cc1nc2sccn2c(=O)c1CCN1CCC(=C(c2ccccc2)c2ccc(F)cc2)CC1`?
eIF4H FP inh: -6.4; CSC inhib: 34.9; PABP polyA inh: 0.5; Rce1 inhib: inactive

How did COc1cccc(/C=C2\SC(=O)N(CCC(=O)NCCCn3ccnc3)C2=O)c1 do in these assays?
MT1-MMP act inh: 1.8; eIF4H FP inh: -1.6; CSC inhib: 14.8; PABP polyA inh: -5.7; Yeast UUG start: -13.5; Rce1 inhib: inactive; HIV Env fusion: -6.6; MT1-MMP act inh RFP: -1.2

How did O=C(O)c1cc2n(n1)C(C(F)(F)F)CC(C1CC1)N2 (configuration not stated) do in these assays?
MT1-MMP act inh: 1.8; eIF4H FP inh: -3.8; CSC inhib: -21.6; PABP polyA inh: -4.7; Yeast UUG start: -14.4; Rce1 inhib: inactive; HIV Env fusion: -5.3; MT1-MMP act inh RFP: 2.9

How did COC(=O)c1ccc[n+](CC(=O)Nc2ccc(OC(F)F)cc2)c1 do in these assays?
MT1-MMP act inh: -6.9; eIF4H FP inh: -0.3; CSC inhib: -2.2; PABP polyA inh: 4.5; Rce1 inhib: inactive; HIV Env fusion: 2.4; MT1-MMP act inh RFP: 0.4

What do the screens show for `CC[C@@H]1C(=O)[C@H](Cc2ccccc2)[C@H]2CCCC(=O)N3CC[C@@H]1[C@@H]23`?
MT1-MMP act inh: 1.3; Yeast UUG start: 4.2; HIV Env fusion: -17.0; MT1-MMP act inh RFP: -1.2

Overlap with the part before: two entries, then new ones.
How did COC(=O)c1ccc[n+](CC(=O)Nc2ccc(OC(F)F)cc2)c1 do in these assays?
MT1-MMP act inh: -6.9; eIF4H FP inh: -0.3; CSC inhib: -2.2; PABP polyA inh: 4.5; Rce1 inhib: inactive; HIV Env fusion: 2.4; MT1-MMP act inh RFP: 0.4

What do the screens show for `CC[C@@H]1C(=O)[C@H](Cc2ccccc2)[C@H]2CCCC(=O)N3CC[C@@H]1[C@@H]23`?
MT1-MMP act inh: 1.3; Yeast UUG start: 4.2; HIV Env fusion: -17.0; MT1-MMP act inh RFP: -1.2

How did CCOc1ccc(-c2cn(-c3ccccc3OC)c(=S)[nH]2)cc1 do in these assays?
MT1-MMP act inh: -2.6; eIF4H FP inh: 1.6; CSC inhib: 30.9; PABP polyA inh: -9.9; Yeast UUG start: -17.1; Rce1 inhib: inactive; HIV Env fusion: -24.4; MT1-MMP act inh RFP: 0.9

Results for OCCN1CCN(c2ncnc3c2ncn3[C@H]2CN(Cc3ccco3)C[C@@H](CO)O2)CC1 ?
MT1-MMP act inh: -2.5; Yeast UUG start: -17.8; HIV Env fusion: 2.8; MT1-MMP act inh RFP: 3.8

Results for Cc1cc(Cl)ccc1OC(C)C(=O)Nc1ccc(S(=O)(=O)Nc2cnc3ccccc3n2)cc1 (configuration not stated) ?
MT1-MMP act inh: 11.1; eIF4H FP inh: -6.7; CSC inhib: 26.5; PABP polyA inh: -2.4; Yeast UUG start: -6.2; MT1-MMP act inh RFP: -7.7

What do the screens show for `COCC(=O)Nc1nnc(CCc2ccccc2)s1`?
MT1-MMP act inh: -1.0; eIF4H FP inh: -0.7; PABP polyA inh: 1.8; Yeast UUG start: -5.9; Rce1 inhib: inactive; HIV Env fusion: -43.5; MT1-MMP act inh RFP: 6.3

Results for COc1ccc(S(=O)(=O)NCC(=O)N(CC(=O)NCC2CCCO2)Cc2ccc(F)cc2)cc1 (configuration not stated) ?
MT1-MMP act inh: 1.3; eIF4H FP inh: -6.4; CSC inhib: -1.9; PABP polyA inh: 8.2; Yeast UUG start: -3.5; Rce1 inhib: inactive; HIV Env fusion: 8.6; MT1-MMP act inh RFP: 2.5

Results for O=C(COC(=O)c1cccs1)Nc1cccc(S(=O)(=O)N2CCOCC2)c1 ?
MT1-MMP act inh: -1.7; eIF4H FP inh: -9.2; CSC inhib: -3.8; PABP polyA inh: 4.3; Yeast UUG start: 12.3; Rce1 inhib: inactive; HIV Env fusion: -6.6; MT1-MMP act inh RFP: 1.9

What do the screens show for `COc1cccc(-c2c(C(=O)N/N=C(\C)COc3ccccc3)nnn2-c2nonc2N)c1`?
MT1-MMP act inh: 0.7; eIF4H FP inh: 1.8; CSC inhib: -6.4; PABP polyA inh: -1.8; Yeast UUG start: -24.7; Rce1 inhib: inactive; HIV Env fusion: 2.1; MT1-MMP act inh RFP: 7.0

What do the screens show for `CC(=O)NC(C)(c1ccccc1)c1nc(-c2cc(F)cc(F)c2)cs1` (configuration not stated)?
MT1-MMP act inh: -0.1; Yeast UUG start: 1.5; HIV Env fusion: 1.6; MT1-MMP act inh RFP: -0.9

How did CN1CCN(C(=S)Nc2cccc(C(F)(F)F)c2)CC1 do in these assays?
MT1-MMP act inh: -1.8; eIF4H FP inh: -6.7; CSC inhib: -2.0; PABP polyA inh: -9.2; Yeast UUG start: -20.9; Rce1 inhib: inactive; HIV Env fusion: -3.9; MT1-MMP act inh RFP: 1.2

Results for CC1CCN(C(=O)C(Cc2ccccc2)n2cccc2)CC1 (configuration not stated) ?
MT1-MMP act inh: -2.1; eIF4H FP inh: -2.3; CSC inhib: 6.4; PABP polyA inh: -13.2; Yeast UUG start: -5.4; Rce1 inhib: inactive; HIV Env fusion: -9.3; MT1-MMP act inh RFP: -2.4

How did Cc1cc(C)c(C#N)c(OCc2ccc(Cl)nc2)n1 do in these assays?
MT1-MMP act inh: -1.5; eIF4H FP inh: -3.1; CSC inhib: 1.6; PABP polyA inh: -1.1; Yeast UUG start: -7.8; Rce1 inhib: inactive; HIV Env fusion: 31.2; MT1-MMP act inh RFP: 3.0

How did Cc1[nH]c(=O)[nH]c(=O)c1S(=O)(=O)N1CCCC(C(=O)N2CCN(c3ccccc3Cl)CC2)C1 (configuration not stated) do in these assays?
MT1-MMP act inh: 1.9; eIF4H FP inh: 1.9; CSC inhib: 18.2; PABP polyA inh: -3.5; Yeast UUG start: -5.4; Rce1 inhib: inactive; MT1-MMP act inh RFP: 7.8

Results for Cc1ccc(C(=O)NCCS(=O)(=O)N2CCN(c3ccccc3F)CC2)cc1[N+](=O)[O-] ?
MT1-MMP act inh: -0.6; eIF4H FP inh: -8.1; CSC inhib: -10.3; PABP polyA inh: 5.6; Yeast UUG start: -4.3; Rce1 inhib: inactive; HIV Env fusion: 10.2; MT1-MMP act inh RFP: 0.8

Results for O=C(NC1CCCCC1)C1CCCN1S(=O)(=O)c1ccc(Cl)cc1 (configuration not stated) ?
MT1-MMP act inh: 1.0; eIF4H FP inh: -2.6; CSC inhib: 3.0; PABP polyA inh: -4.8; Yeast UUG start: -5.8; Rce1 inhib: inactive; HIV Env fusion: 14.2; MT1-MMP act inh RFP: 2.8

How did CC(NC(=O)CN(C)Cc1cccs1)c1ccccc1 (configuration not stated) do in these assays?
MT1-MMP act inh: 6.0; eIF4H FP inh: -4.4; CSC inhib: -12.2; PABP polyA inh: 6.0; Rce1 inhib: inactive; HIV Env fusion: -10.2; MT1-MMP act inh RFP: 5.5

Results for CN(Cc1ccccc1)c1nc2c(c(=O)n(C)c(=O)n2C)n1CCCc1ccccc1 ?
MT1-MMP act inh: 3.6; eIF4H FP inh: -8.9; CSC inhib: 22.2; PABP polyA inh: -1.0; Yeast UUG start: -25.0; Rce1 inhib: inactive; MT1-MMP act inh RFP: -8.0

What do the screens show for `C[C@H](CO)N1C[C@H](C)[C@@H](CN(C)Cc2ccc(C(=O)O)cc2)Oc2c(NS(=O)(=O)c3ccc(F)cc3)cccc2C1=O`?
MT1-MMP act inh: -0.4; CSC inhib: 2.1; Yeast UUG start: 11.4&8.6; HIV Env fusion: -0.2; MT1-MMP act inh RFP: 3.3

Results for CN(C)c1ccc(CC(=O)N2CCCC(c3cc(C(=O)Nc4ccc5c(c4)OCO5)no3)C2)cc1 (configuration not stated) ?
MT1-MMP act inh: 1.4; Yeast UUG start: 7.9; HIV Env fusion: 22.2; MT1-MMP act inh RFP: -16.9

Results for COc1ccc(-n2c(COc3cccc(C)c3)nnc2SCC(=O)O)cc1 ?
MT1-MMP act inh: -4.5; eIF4H FP inh: 0.6; CSC inhib: -6.0; PABP polyA inh: 2.3; Yeast UUG start: -1.5; Rce1 inhib: inactive; HIV Env fusion: 9.4; MT1-MMP act inh RFP: -3.2

How did C[C@H](O)[C@@H]1C(=O)N2CCc3ccc(-c4ccccc4)cc3[C@@H]2C[C@@H]1N(C)C(=O)c1ccc(C#N)cc1 do in these assays?
MT1-MMP act inh: 1.1; Yeast UUG start: -3.8; HIV Env fusion: -20.5; MT1-MMP act inh RFP: 4.8

How did Cc1ccc(NC(=O)C2Cc3ccccc3C(=O)O2)cc1 (configuration not stated) do in these assays?
MT1-MMP act inh: -3.3; eIF4H FP inh: -0.2; CSC inhib: 5.2; PABP polyA inh: -6.1; Rce1 inhib: inactive; HIV Env fusion: -29.7; MT1-MMP act inh RFP: -6.2

Results for COC(CNC(=O)c1cn(C)c2ccc(S(=O)(=O)N3CCOCC3)cc2c1=O)OC ?
MT1-MMP act inh: 0.2; eIF4H FP inh: 5.2; CSC inhib: -5.4; PABP polyA inh: 3.6; Yeast UUG start: -12.3; Rce1 inhib: inactive; HIV Env fusion: -8.1; MT1-MMP act inh RFP: 5.3

What do the screens show for `O=C(O)c1ccc(N/N=C/c2ccc(F)c(F)c2)cc1`?
MT1-MMP act inh: 3.1; eIF4H FP inh: -9.6; CSC inhib: 3.4; PABP polyA inh: -23.7; Rce1 inhib: inactive; HIV Env fusion: -52.2; MT1-MMP act inh RFP: 1.8

Results for C/C(N)=C(/C#N)C(=O)COC(=O)c1ccncc1 ?
MT1-MMP act inh: -2.1; eIF4H FP inh: 10.6; CSC inhib: -11.3; PABP polyA inh: 15.0; Yeast UUG start: -18.4; Rce1 inhib: inactive; HIV Env fusion: -31.6; MT1-MMP act inh RFP: 6.7

Results for CC(C)(C)OC(=O)N1CCC(CC2CC(c3ccccc3)=NO2)(C(=O)O)CC1 (configuration not stated) ?
MT1-MMP act inh: -7.9; CSC inhib: 4.7; Yeast UUG start: 11.7; Rce1 inhib: inactive; HIV Env fusion: -14.8; MT1-MMP act inh RFP: 0.2
